Ecoli rRNA inh: selective bacterial rRNA inhibition in E. coli | actives 1.6% (n = 350,000) | GFP signal change (wild-type ribosome), % (concentration not given with the values) | E. coli WT GFP vs humanized-ribosome RFP mutants, fluorescence, 24 h; hits give low values; DMSO median 0, no signal -100;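 active = significant combined selectivity score with lowered wild-type GFP, culture density cut under 30%, mutant RFP and density less affected; inactive = any of these conditions unmet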; also: one replicate is shown; some compounds called inactive have numbers as strong as hits
MLL AF4-AF9 inh: MLL-AF4/AF9 protein interaction inhibition | AlphaScreen, biotin-AF4 peptide binding to FLAG-AF9 | inhibition, % at 10 µM | P42568 | actives 0.47% (n = 350,000);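 active = every replicate reaching a set inhibition limit, whatever the replicate mean, cut at about 25% in these data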;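 also: 0% = plate neutral control median and 100% = total signal loss; the record names both 10 and 1 µM as test concentration; the first replicate is given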
Target sequence (P42568 whole entry, looked up): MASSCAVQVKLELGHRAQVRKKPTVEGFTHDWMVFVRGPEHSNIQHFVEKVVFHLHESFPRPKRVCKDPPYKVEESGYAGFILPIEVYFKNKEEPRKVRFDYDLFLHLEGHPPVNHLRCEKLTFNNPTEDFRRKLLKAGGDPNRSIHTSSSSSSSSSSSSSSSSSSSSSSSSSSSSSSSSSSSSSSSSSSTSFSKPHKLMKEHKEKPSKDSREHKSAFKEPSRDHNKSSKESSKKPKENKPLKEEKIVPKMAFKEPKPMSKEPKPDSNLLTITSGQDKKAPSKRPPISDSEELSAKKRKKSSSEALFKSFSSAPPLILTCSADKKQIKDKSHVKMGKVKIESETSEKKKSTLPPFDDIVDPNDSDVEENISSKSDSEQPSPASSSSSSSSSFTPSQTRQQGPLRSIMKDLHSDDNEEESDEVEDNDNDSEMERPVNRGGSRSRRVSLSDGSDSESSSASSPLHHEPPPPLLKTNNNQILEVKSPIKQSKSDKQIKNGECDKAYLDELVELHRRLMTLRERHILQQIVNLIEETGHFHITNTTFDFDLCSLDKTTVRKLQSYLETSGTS
Ecoli rRNA inh OD600: further read-out of Ecoli rRNA inh, marked with its call; OD600 change, %; measured here: OD600 growth;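 optical density of the mix in the first replicate; 0 = DMSO median and -100 = no signal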
Ecoli rRNA inh RFP: also measured in Ecoli rRNA inh; calls as there; RFP signal change, %; measured here: RFP humanized mutant strains;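 first replicate; 0 = DMSO median and -100 = no signal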
Starred values were filed as active, the others as inactive.

SMILES	Ecoli rRNA inh	Ecoli rRNA inh OD600	Ecoli rRNA inh RFP	MLL AF4-AF9 inh
CN1C(=O)c2cc(NC(=O)Cc3cccs3)ccc2OC[C@H]2O[C@@H](CC(=O)O)CC[C@@H]21	2.1	7.3	-2.0	-1.3
C[C@@H]1CN([C@H](C)CO)C(=O)Cc2cc(NC(=O)CCCCCC(=O)Nc3ccccc3N)ccc2O[C@H]1CN(C)CC1CCCCC1	0.0	-3.6	0.0	-1.1
O=C(CN1CCOCC1)N[C@@H]1CC[C@H](CCNC(=O)C2CCCC2)O[C@H]1CO	2.7	0.7	1.4	4.9
COc1ccc(CNC(=O)C[C@H]2C=C[C@H](NC(=O)c3ccc4c(c3)OCO4)[C@H](CO)O2)cc1	0.1	6.9	0.4	-5.8
C[C@@H]1CN([C@H](C)CO)C(=O)Cc2cc(NS(=O)(=O)c3cccs3)ccc2O[C@H]1CN(C)Cc1ccc(C(=O)O)cc1	1.3	-1.3	-1.9	-4.1
C[C@@H]1CN([C@H](C)CO)C(=O)c2cc(NC(=O)C3CC3)ccc2O[C@@H]1CN(C)C(=O)Nc1ccc(C(F)(F)F)cc1	-15.1	-6.0	-0.9	-3.7
CO[C@H]1CN(C)C(=O)c2ccc(NS(=O)(=O)c3cccc(F)c3)cc2OC[C@@H](C)N(C(=O)Cc2cccnc2)C[C@@H]1C	1.1	4.2	-0.3	2.7
Cc1noc(C)c1NC(=O)Nc1ccc2c(c1)C(=O)N([C@@H](C)CO)C[C@@H](C)[C@@H](CN(C)Cc1ccccc1)OCCCC[C@H](C)O2	-3.1	-3.9	0.3	0.0
CCc1nnc(NC(=O)c2cccc(S(=O)(=O)N3CCN(C)CC3)c2)s1	5.2	12.4	-1.0	0.6
CO[C@@H]1CN(C)C(=O)c2ccc(NS(=O)(=O)c3ccc(C)cc3)cc2OC[C@@H](C)NC[C@@H]1C	0.5	3.5	-1.8	-3.2
C/C=C/c1ccc2c(c1)O[C@@H](CN(C)C(=O)NC1CCCCC1)[C@H](C)CN([C@@H](C)CO)S2(=O)=O	-7.5	-17.0	-6.6	-0.8
CCCN1C[C@H](C)[C@H](OC)CN(C)C(=O)c2cc(NC(=O)c3ccccc3)ccc2OC[C@@H]1C	0.2	1.8	3.5	0.5
C[C@H]1CN([C@@H](C)CO)C(=O)c2cccc(NC(=O)C3CCOCC3)c2O[C@@H]1CN(C)CC1CC1	3.7	1.8	0.9	-2.0
COCC(=O)N1CCCCN2[C@H](CO)[C@H](c3ccc(-c4ccc(F)cc4)cc3)[C@H]2C1	-0.1	-4.2	-1.4	-0.4
COCC#Cc1cnc2c(c1)C(=O)N([C@@H](C)CO)C[C@H](C)[C@H](CN(C)C(=O)Nc1ccccc1F)O2	0.0	-8.1	-1.7	-6.0
O=C(C1CCCC1)N1CC2(C1)[C@H](c1ccccc1)[C@@H](CO)N2CCC(F)(F)F	1.9	-4.1	-2.7	-1.5
CCOc1ccc(-c2cnc3cccnn23)cc1	-7.7	-26.1	-11.1	-8.8
COc1ccc(CN(C)C[C@H]2Oc3ccc(NC(=O)Nc4ccc(F)cc4)cc3C(=O)N([C@H](C)CO)C[C@@H]2C)cc1	-1.7	1.3	3.2	6.6
C[C@H]1CN([C@@H](C)CO)C(=O)c2cc(NC(=O)Nc3ccc4c(c3)OCO4)ccc2O[C@@H]1CN(C)C(=O)NC1CCCCC1	0.4	6.2	-2.9	0.3
CCCNC(=O)N1[C@@H](CO)[C@@H]2c3ccccc3N(C(=O)Nc3cccc(Cl)c3)C[C@@H]21	-19.7	-22.7	0.0	-2.1
CCC(=O)Nc1ccc2c(c1)OC[C@@H](C)N(Cc1cc(-c3ccccc3)on1)C[C@@H](C)[C@H](OC)CN(C)C2=O	-0.9	-9.3	5.8	2.5
C[C@@H]1CN([C@@H](C)CO)C(=O)Cc2cc(NC(=O)Nc3ccccc3)ccc2O[C@H]1CN(C)Cc1ccncc1	-1.4	-10.9	-1.3	2.3
COc1ccc2c3c([nH]c2c1)[C@@H](CO)N(S(C)(=O)=O)CC31CCN(C(=O)c2cccnc2)CC1	-0.1	9.1	-0.9	-4.2
CC(C)(O)C1=C[N+](=O)CC=C1	14.8	24.1	1.2	-4.5
CCCN1C[C@@H](C)[C@H](OC)CN(C)C(=O)c2cc(NC(=O)NC3CCCCC3)ccc2OC[C@@H]1C	-2.1	-2.7	-1.8	0.6
Additional structures
SMILES	Ecoli rRNA inh	Ecoli rRNA inh OD600	Ecoli rRNA inh RFP	MLL AF4-AF9 inh
COc1ccc(S(=O)(=O)Nc2ccc3c(c2)C(=O)N([C@H](C)CO)C[C@H](C)[C@H](CN(C)C(=O)Nc2c(C)noc2C)OCCCC[C@@H](C)O3)cc1	1.2	5.9	0.6	-1.1
CC(C)NC[C@@H]1[C@H](c2ccc(C3=CCCCC3)cc2)[C@H](CO)N1C(=O)NC(C)C	-1.8	-48.5	37.0	7.3
O=C(Nc1ccc(F)cc1)N[C@H]1CC[C@@H](CCn2cc(C3(O)CCCC3)nn2)O[C@@H]1CO	2.0	-0.4	-1.5	0.9
Cc1nnsc1-c1nc2ccccc2n1C(CCc1ccccc1)c1nc2ccccc2[nH]1 (configuration not stated)	-8.1	-23.6	-5.0	-8.8
O=C(C[C@@H]1C=C[C@@H](NC(=O)C2CCOCC2)[C@H](CO)O1)NCC1CCCCC1	-0.3	-5.0	0.2	0.0
CN1c2ccc(-c3ccccc3F)cc2[C@H]2[C@H](CCN2S(=O)(=O)c2ccccc2)[C@@H]1CO	1.7	4.7	3.4	-0.2
COc1ccc(S(=O)(=O)N(C)C[C@@H]2OCCCC[C@@H](C)Oc3ccc(NC(=O)c4ccccc4)cc3C(=O)N([C@H](C)CO)C[C@H]2C)cc1	-6.9	-1.1	-0.4	0.5
C[C@H](O)C#Cc1ccc2c(c1)O[C@H](CN(C)C)[C@@H](C)CN([C@@H](C)CO)S2(=O)=O	2.3	12.2	-0.4	-2.5
CCCNC(=O)N[C@H]1CC[C@H](CCn2cc(C3CCCC3)nn2)O[C@@H]1CO	1.8	7.3	-1.5	-2.9
O=C(C[C@@H]1C=C[C@@H](NC(=O)Nc2ccc(F)cc2)[C@H](CO)O1)NCc1ccccn1	-6.4	2.5	-2.1	0.0
CCNC(=O)C[C@@H]1C=C[C@@H](NS(=O)(=O)c2ccc(C)cc2)[C@@H](CO)O1	-2.5	6.3	-3.1	-0.7
CC1=CC(O)(c2ccccn2)P(=O)(c2ccccc2)C=C1C (configuration not stated)	8.0	18.4	4.0	1.5
CCC(=O)N[C@@H]1C=C[C@H](CC(=O)OC)O[C@H]1CO	1.1	3.5	-0.3	0.0
COc1ccc(CN(C)C[C@@H]2Oc3c(NS(=O)(=O)c4cn(C)cn4)cccc3C(=O)N([C@H](C)CO)C[C@H]2C)cc1	3.0	9.5	-0.7	0.0
CCc1cnc(N2[C@@H](C#N)[C@H](c3ccccc3)[C@@H]2CO)s1	-1.7	-6.0	1.5	-0.4
COCC(=O)Nc1ccc2c(c1)[C@@H]1C[C@@H](CC(=O)NCCc3ccccc3)O[C@@H](CO)[C@@H]1O2	0.0	-0.8	-2.5	-1.0
COc1ccc(C#Cc2ccc3c(c2)O[C@H](CN(C)C(=O)Nc2cccc(OC)c2)[C@@H](C)CN([C@@H](C)CO)S3(=O)=O)cc1	4.6	2.8	1.8	-0.6
C[C@H]1CN([C@@H](C)CO)C(=O)c2cccc(NS(=O)(=O)c3cccs3)c2O[C@@H]1CN(C)Cc1ccc(C(=O)Nc2ccccc2N)cc1	0.3	-0.9	-2.7	1.2
CO[C@@H]1CN(C)C(=O)c2ccc(NC(=O)NC(C)C)cc2OC[C@H](C)N(CC2CC2)C[C@H]1C	-5.8	-7.6	-2.9	-13.1
C[C@H](CO)N1C[C@H](C)[C@H](CN(C)S(C)(=O)=O)Oc2ccc(NC(=O)CCCCCC(=O)Nc3ccccc3N)cc2C1=O	3.1	1.5	-0.4	-4.7
COc1ccc(C(=O)Nc2ccc3c(c2)C(=O)N(C)C[C@@H](OC)[C@H](C)CN(C)[C@@H](C)CO3)cc1	3.9	6.1	-1.3	-2.7
C[C@@H]1CCCCO[C@@H](CN(C)C(=O)Nc2ccc(F)cc2)[C@H](C)CN([C@H](C)CO)C(=O)c2cc(NC(=O)Nc3cccc4ccccc34)ccc2O1	1.9	5.7	0.5	-1.5
COc1ccc(NC(=O)Nc2ccc3c(c2)C(=O)N([C@@H](C)CO)C[C@@H](C)[C@H](CN(C)S(=O)(=O)c2ccc(C)cc2)OCCCC[C@H](C)O3)cc1	-1.8	8.8	-2.5	-11.6
C[C@@H](NC(=O)C[C@@H]1C=C[C@@H](NC(=O)C2CCOCC2)[C@@H](CO)O1)c1ccccc1	-0.9	0.6	0.1	0.1
CCCCC[C@H](C)N1C[C@H](COCc2ccccc2)Oc2cc(N3CC[C@@H](N(C)C)C3)ccc2S1(=O)=O	-19.5	-32.7	15.4	14.4

Entries of single compounds from above:
CCc1cnc(N2[C@@H](C#N)[C@H](c3ccccc3)[C@@H]2CO)s1 is entered as Ecoli rRNA inh: -1.7; Ecoli rRNA inh OD600: -6.0; Ecoli rRNA inh RFP: 1.5; MLL AF4-AF9 inh: -0.4
Cc1nnsc1-c1nc2ccccc2n1C(CCc1ccccc1)c1nc2ccccc2[nH]1 (configuration not stated) is entered as Ecoli rRNA inh: -8.1; Ecoli rRNA inh OD600: -23.6; Ecoli rRNA inh RFP: -5.0; MLL AF4-AF9 inh: -8.8
COc1ccc(C(=O)Nc2ccc3c(c2)C(=O)N(C)C[C@@H](OC)[C@H](C)CN(C)[C@@H](C)CO3)cc1 is entered as Ecoli rRNA inh: 3.9; Ecoli rRNA inh OD600: 6.1; Ecoli rRNA inh RFP: -1.3; MLL AF4-AF9 inh: -2.7

More compounds follow.
SMILES	Ecoli rRNA inh	Ecoli rRNA inh OD600	Ecoli rRNA inh RFP	MLL AF4-AF9 inh
COCc1cn(CC[C@@H]2CC[C@H](NC(=O)Nc3ccc4c(c3)OCO4)[C@@H](CO)O2)nn1	0.2	-2.0	0.0	-1.9
CCCN(C)C[C@H]1Oc2cc(C#Cc3ccncc3)ccc2S(=O)(=O)N([C@H](C)CO)C[C@H]1C	2.5	5.7	-0.1	1.3
CN(C)CC#Cc1ccc([C@H]2[C@H]3CN(S(=O)(=O)c4ccccc4F)CCCCN3[C@H]2CO)cc1	0.2	8.0	-0.5	3.0
CO[C@H]1CN(C)C(=O)c2cc(NC(C)=O)ccc2OC[C@@H](C)N(Cc2cncnc2)C[C@H]1C	0.8	0.4	-2.5	-2.8
N[C@H]1CC[C@H](CCn2cc(-c3cccc(F)c3)nn2)O[C@@H]1CO	0.7	-3.0	0.7	-0.1
CCCNC(=O)N1C[C@@H](O)COC[C@H]2O[C@H](CC(=O)OC)CC[C@@H]21	8.1	-0.8	0.7	-3.5
COc1ccc(S(=O)(=O)Nc2ccc3c(c2)CC(=O)N([C@H](C)CO)C[C@@H](C)[C@H](CN(C)S(=O)(=O)c2cn(C)cn2)O3)cc1	1.7	0.5	-1.4	-3.9
Cc1cc(C(=O)Nc2cccc3c2O[C@@H](CN(C)Cc2ccc(-c4ccccc4)cc2)[C@H](C)CN([C@H](C)CO)C3=O)n(C)n1	2.2	15.4	2.6	-2.6
O=C(N[C@@H]1CC[C@@H](CCNS(=O)(=O)c2ccc(F)cc2)O[C@H]1CO)c1cnccn1	2.5	9.1	-0.7	-2.2
c1ccc(CN(Cc2ccccc2)C(c2ccnc3ccccc23)c2nnnn2-c2ccc3c(c2)OCCO3)cc1 (configuration not stated)	23.1	14.8	-0.4	-0.5
C[C@@H]1CN([C@@H](C)CO)C(=O)Cc2cc(NC(=O)CCCCCC(=O)Nc3ccccc3N)ccc2O[C@H]1CN(C)Cc1ccncc1	-1.9	-0.2	-1.3	-1.3
COCCNC(=O)C1(C)CCCN(Cc2c(C)nn(-c3ccccc3)c2C)C1 (configuration not stated)	13.0	15.1	0.7	-1.6
Cc1ccc(S(=O)(=O)Nc2cccc3c2O[C@@H](CN(C)C)[C@@H](C)CN([C@@H](C)CO)C3=O)cc1	3.0	12.6	1.9	-5.2
CC(C)[C@H](CO)NC(=O)[C@H]1O[C@@H](n2ccc(N)nc2=O)[C@H](O)[C@@H]1O	6.2	4.7	3.0	-1.2
CO[C@H]1CN(C)C(=O)c2cc(NC(=O)NC3CCCCC3)ccc2OC[C@H](C)N(C)C[C@H]1C	-1.6	-4.8	-2.6	0.0
COc1ccc(CN(C)C[C@@H]2Oc3ccc(NC(=O)NC(C)C)cc3C(=O)N([C@H](C)CO)C[C@@H]2C)cc1	2.5	1.2	-4.9	-0.4
CC(=O)N(C)C[C@H]1Oc2cc(C#Cc3ccccc3F)ccc2S(=O)(=O)N([C@@H](C)CO)C[C@@H]1C	-5.5	-21.0	2.5	0.6
O=C([C@@H]1[C@@H](CO)[C@@H]2Cn3c(ccc(/C=C/c4ccccc4)c3=O)[C@H]1N2)N1CCCCC1	-3.4	1.8	0.7	-2.8
N#C[C@@H]1[C@@H](c2ccc(C3=CCCCC3)cc2)[C@H](CO)N1C(=O)CN1CCOCC1	3.1	-0.1	0.1	3.9
C[C@H](CO)N1C[C@H](C)[C@H](CN(C)C(=O)NC2CCCC2)Oc2ncc(-c3cccc(C(F)(F)F)c3)cc2C1=O	-3.6	-1.5	0.2	-1.4
N#C[C@H]1[C@@H](c2ccc(C#CC3CCCC3)cc2)[C@H](CO)N1C(=O)Cc1ccccn1	-43.6	-71.5	0.3	3.1
CO[C@@H]1CN(C)C(=O)c2cc(NC(=O)NC3CCCCC3)ccc2OC[C@@H](C)N(CC2CCOCC2)C[C@H]1C	-3.1	-11.6	-1.3	-9.3

A portion of the library; count on the stated rates, not on these rows.
